Compound activity: PubChem BioAssay, National Center for Advancing Translational Sciences (NCATS)
LASV entry inh: Lassa virus entry inhibition. AID 540256. Lassa virus pseudotype entry inhibition, cell reporter; control for the full effect not named in the record. Potency, µM (highest dose often 37.9 µM), inactives show at the highest dose activity change, negative = inhibition, hits mostly inhibitors. hit rate 1.2% among 300,000; active means well fitted inhibition curve with a large enough effect; inconclusive means small, poorly fitted or top-dose-only effect, or effect the other way; inactive means flat fitted curve, though single readings scatter; tested in HEK293 cells; further: on the % scale 0 is the no-effect control and ±100 the full control effect; nearly all actives have a fitted effect of over 50% in size; luciferase read-out
RE007 growth inh: less growth of the S. pombe RE007 Vpr strain | S. pombe RE007 Vpr strain, BacTiter-Glo ATP luminescence, 24 h; control for the full effect not named in the record | Potency, µM (series often up to 92.2 µM), inactives show at the top dose activity change, negative = less growth | hit rate 0.21% among 360,000; active = well fitted falling curve with a large enough effect; inconclusive = small, poorly fitted or top-dose-only effect; inactive = no such curve, though single readings can be large or run the other way;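 further: on the % scale 0 is the no-effect control and ±100 the full control effect; nearly all actives have a fitted effect of over 50% in size; the assay follows cell death caused by Vpr and the record does not say whether a fall means rescue or toxicity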
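Fission yeast strain RE007, carrying one chromosomally integrated HIV-1 vpr copy, was seeded at OD 0.01 in PMG+AL medium with 23 nL pinned compound. After 24 h at 30 °C and 99% humidity, viability was read by BacTiter-Glo luminescence.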
Cruzain noTriton: inhibitors of Trypanosoma cruzi cruzain without detergent; hit rate 2.3% among 200,000; Potency, µM, for the others: max response, negative = inhibition, hits mostly inhibitors; AID 1476; purified cruzain, Z-FR-AMC fluorescence, no detergent;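 further: plate controls were enzyme without inhibitor for no effect and buffer without enzyme for full effect; nearly all actives have a fitted effect of over 40% in size; top concentration of the series not given in the record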
Target sequence (P25779 123-467 limits assumed): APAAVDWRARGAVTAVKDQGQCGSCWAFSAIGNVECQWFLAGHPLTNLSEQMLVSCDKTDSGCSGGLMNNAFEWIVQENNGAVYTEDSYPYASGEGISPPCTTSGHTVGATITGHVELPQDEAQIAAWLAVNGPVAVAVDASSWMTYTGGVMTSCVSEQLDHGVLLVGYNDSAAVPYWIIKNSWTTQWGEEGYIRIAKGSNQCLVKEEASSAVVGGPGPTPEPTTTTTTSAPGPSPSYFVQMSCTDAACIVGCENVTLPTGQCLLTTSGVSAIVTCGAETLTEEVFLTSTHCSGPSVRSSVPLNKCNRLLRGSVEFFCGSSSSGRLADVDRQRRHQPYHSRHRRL
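Purified cruzain at 1.5 nM, pre-incubated 15 min with compound at room temperature in 100 mM sodium acetate pH 5.5, 5 mM DTT, 0.00005% Triton X-100. Reaction started with 2 uM Z-FR-AMC; AMC fluorescence increase over 60 s gives rate.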
NS1 function inh: blocks influenza NS1 protein function | AID 2326 | hit rate 0.4% among 270,000 | S. cerevisiae slowed by influenza A NS1, growth recovery by OD600 | Potency, µM (series often up to 46.1 µM), without a hit: at the highest dose activity, positive = more growth; active means well fitted rising curve with a large enough effect; inconclusive means small, poorly fitted or top-dose-only effect; inactive means no such curve, though single readings can be large or run the other way; further: nearly all actives have a fitted effect of over 50% in size
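In this qHTS, NS1 from influenza A is expressed in budding yeast, where it slows growth. Cells are switched from glucose to 2% galactose medium (pH 6.0, -URA), treated with compound, and growth recovery is read at OD600.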
Cruzain inh Det: blocks cruzain activity in presence of Triton detergent. Potency, µM, without a hit: max response, negative = inhibition, actives largely listed as inhibitors. purified cruzain, Z-FR-AMC fluorescence, 0.01% Triton. P25779. AID 1478. hit rate 0.43% among 200,000;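 further: plate controls were neutral wells for no effect and buffer without enzyme for full effect; nearly all actives have a fitted effect of over 40% in size; top concentration of the series not given in the record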
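Purified cruzain (1.5 nM final) was preincubated with compounds for 15 min at room temperature in 100 mM sodium acetate pH 5.5, 5 mM DTT, 0.01% Triton X-100. Reaction started with 2 uM Z-FR-AMC; AMC fluorescence change over 60 s gave activity.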
SARS PLpro yeast: inhibitors of SARS-CoV papain-like protease in yeast; S. cerevisiae expressing SARS-CoV PLpro, growth rescue; control for the full effect not named in the record; Potency, µM (highest dose often 32.9 µM), for inactives: at the highest dose activity, positive = growth rescue; hit rate 0.19% among 330,000; AID 485353; active means well fitted rising curve with a large enough effect; inconclusive means small, poorly fitted or top-dose-only effect; inactive means no such curve, though single readings can be large or run the other way; further: 0% is about no effect; nearly all actives have a fitted effect of over 55% in size; growth read by luminescence after 48 h
StopGo reporter: FMDV 2A StopGo reporter, luciferase signal. human cells with a luciferase reporter of 2A StopGo recoding; control for the full effect not named in the record. Potency, µM (highest dose often 57.9 µM), for the others: top-dose signal change, negative = less light. hit rate 1.2% among 410,000. AID 1159524; active = well fitted falling curve with a large enough effect; inconclusive = small, poorly fitted or top-dose-only effect; inactive = no such curve, though single readings can be large or run the other way; tested in HEK293T cells; further: on the % scale 0 is the no-effect control and ±100 the full control effect; nearly all actives have a fitted effect of over 45% in size; luciferase light after 4 h
Marburg entry inh: inhibitors of Marburg virus binding or cell entry; Marburg virus pseudotyped entry inhibition, cell reporter; control for the full effect not named in the record; about a third of the inactives were read at about 46 µM; Potency, µM (doses to about 37.8 µM), inactives show at the highest dose activity change, negative = inhibition, actives largely listed as inhibitors; hit rate 1.8% among 300,000; active = well fitted inhibition curve with a large enough effect; inconclusive = small, poorly fitted or top-dose-only effect, or effect the other way; inactive = flat fitted curve, though single readings scatter; tested in HEK293 cells; about a fifth of its hits are not listed in these tables; further: on the % scale 0 is the no-effect control and ±100 the full control effect; luciferase read-out
* = called active by the depositor; ? = inconclusive; / = not tested or not shown; & = joins results of further samples; [ ] = another dose, or the depositor's remark. Unless noted, the call rests on the fitted dose curve; in most records, active means well fitted curve in the direction sought with a large enough effect; inconclusive means small, poorly fitted or top-dose-only effect, or another doubt; inactive means no such curve, though single readings can be large; an effect the other way counts as inactive or inconclusive. Potency means the concentration at half of the fitted maximal effect.

SMILES	LASV entry inh	RE007 growth inh	Cruzain noTriton	NS1 function inh	Cruzain inh Det	SARS PLpro yeast	StopGo reporter	Marburg entry inh
CC(=O)NS(=O)(=O)c1ccc(NC(=O)/C=C/c2cn(-c3ccccc3)nc2-c2ccccc2)cc1	19%	/	-11%	10%	-9.0%	18%	-14%	-20%
CCOC(=O)C1CCN(Cc2ccc(Cl)c(Cl)c2)CC1	22%	9%	7%	-6%	12%	13%	?	-7%
CC(C)n1c(C(O)c2ccccc2)nc2ccccc21 (stereo not given)	10%	-5%	5%	-29%	3.4%	-6%	/	-5%
CCCOCn1cc(F)c(=O)[nH]c1=O	3%	-15%	0%	0%	-0.7%	-3%	8%	-11%
O=c1c2ccccc2nc(-c2ccco2)n1-c1ccncc1	15%	16%	-3%	-5%	-12%	3%	?	22%
COc1ccc(CC(=O)OCC(=O)c2c(N)n(C)c(=O)n(C)c2=O)cc1OC	-7%	-3%	/	/	/	3%	15%	?
CCOc1ccc(/C(O)=C2/C(=O)C(=O)N(CCOCCO)C2c2ccccn2)cc1 (stereo not given)	-2%	3%	-3%	5%	-1.6%	?	63%[activator]	1%
C=CCN(c1ccccc1C(=O)O)S(=O)(=O)c1ccc(NC(=O)OC)cc1	20%	31%	/	?	/	1%	-2%	1%[46.1 µM]
CCN1CCN(C(=O)c2ccc3c(c2)N(Cc2ccc(Cl)cc2)C(=O)c2ccccc2S3=O)CC1 (stereo not given)	-2%[46.1 µM]	/	-9%	/	1.9%	/	-12%	-8%[46.1 µM]
CCN(CC)C(=O)C1=C(C)Nc2nc3ccccc3n2C1c1ccccc1F (stereo not given)	16%[46.1 µM]	/	1%	/	1.6%	/	-22%	3%[46.1 µM]
Cc1cc(Sc2ccc(Cl)cc2)nc2ccccc12	5%[46.1 µM]	/	-2%	/	-7.2%	/	4%	/
CC1=C(C(=O)OC(C)C)C(c2cn(-c3ccccc3)nc2-c2cccs2)NC(=O)N1 (stereo not given)	-8%	-4%	-28%	-6%	-9.4%	-14%	-18%	26%
CCCCOc1ccc(CN2C(=O)C(=O)c3cc(C)ccc32)cc1OC	?	/	0%	/	0.0%	/	-16%	?
CCOC(=O)c1c(-c2ccc(C)cc2)cn2ccccc12	1%	-5%	8%	?	-14%	1%	0%	0%
O=c1[nH]c(C(F)(F)F)nc2ccccc12	2%	-3%	7%	-15%	6.9%	-3%	-18%	7%
O=C(CSc1nnc(Cc2ccccc2)o1)N1CCOCC1	0%	-7%	5%	0%	4.6%	0%	/	0%
O=C(N/N=C/c1ccc(Br)s1)c1c[nH]c2ccccc12	-8%	2%	14%	24%	-7.3%	-25%	28%	-19%
COc1ccc(-c2ccc(-c3noc(-c4cccs4)n3)c(OC)n2)cc1	32%	-8%	?	7%	-2.1%	?	24%	1%
O=C(NCc1ccc2c(c1)OCO2)C1CC(c2ccccc2O)=NO1 (stereo not given)	-7%	-21%	-11%	-9%	-3.5%	6%	/	1%
CCOc1ccccc1NC(=O)C(=O)NCCc1sc(-c2cccc(F)c2)nc1C	0%[46.1 µM]	/	-7%	/	-1.0%	/	-20%	/
CCn1c(Cn2nnc(-c3ccccc3)n2)nnc1SCC(=O)Nc1ccccc1	-20%	-1%	1%	-6%	2.0%	-4%	/	17%
O=C(CSc1nc2c(c(=O)[nH]1)CCCC2)Nc1cccc(O)c1	-18%[46.1 µM]	/	14%	/	-4.8%	/	-16%	2%[46.1 µM]
Cc1ccc(OCC(=O)NCc2n[nH]c(=O)c3ccccc23)cc1	14%	0%	/	/	/	-5%	-1%	5%
CCOC(=O)c1cc(C)nc(N2CCCCC2)c1C#N	/	-14%	/	-38%	/	0%	18%	/
CC(=O)N1c2ccc(S(=O)(=O)N3CCCC(C(=O)Nc4ccc(F)cc4)C3)cc2CC1C (stereo not given)	/	13%	/	-5%	/	0%	?	/

Next results follow.
SMILES	LASV entry inh	RE007 growth inh	Cruzain noTriton	NS1 function inh	Cruzain inh Det	SARS PLpro yeast	StopGo reporter	Marburg entry inh
COc1ccc(NC(=O)CCCSc2nc(-c3ccco3)cc(C(F)(F)F)n2)cc1OC	-8%[46.1 µM]	-23%	?	-22%	-10%&-9.6%	-5%	-26%&-26%	?
CCOC(=O)c1sc(NC(=O)c2ccc3nc[nH]c3c2)nc1C	-17%	-24%	/	-40%	/	0%	49%[activator]	?
COc1ccc(Cn2c(O)cc(=O)[nH]c2=O)cc1	-1%	-18%	-11%	18%	-9.8%	16%	-9%	18%
Cc1cc(=O)n(CNC(=O)c2ccccc2)c(=S)[nH]1	6%	-9%	9%	3%	-0.3%	4%	/	24%
Cc1ccc(S(=O)(=O)NCCC(=O)NC2CCCCCC2)cc1C	-1%	9%	/	/	/	-2%	-11%	?
O=C(CN1C(=O)COc2ccc(S(=O)(=O)N3CCCC3)cc21)N1CCN(c2cccc(C(F)(F)F)c2)CC1	16%[46.1 µM]	/	?	/	-3.9%	/	?	4%[46.1 µM]
COc1ccc(C2CC(=O)C=C(NCc3ccc4c(c3)OCO4)C2)cc1 (stereo not given)	/	4%	/	-1%	/	1%	18%	/
Cc1noc(C)c1CSc1nc2ccccc2[nH]1	5%	15%	-2%	-7%	1.6%	-5%	-14%	14%&14%
COc1ccc(C(C#N)N2CCCCCC2)cc1OC (stereo not given)	1%	9%	-6%	?	-1.7%	11%	-2%	?
O=C(Nc1cc(-c2ccccc2)sc1C(=O)O)c1cccc(F)c1	25%[46.1 µM]	/	-6%	-63%	0.4%	-9%	1%&-12%	11%[46.1 µM]
FC(F)(F)c1nnc2ccc(NCc3cccnc3)nn12	8%[46.1 µM]	-15%	/	/	/	0%	-1%	-23%[46.1 µM]
Cc1cnc(C(=O)OCC(=O)NC2CCCCCC2)cn1	12%[46.1 µM]	1%	/	/	/	2%	-16%	-18%[46.1 µM]
Cn1c(=O)c2c(SCC(=O)N3CCCCC3)nc(-c3ccccc3F)nc2n(C)c1=O	3%	-2%	/	6%	/	7%	-28%	6%
COc1ccc(N2CC(C)Cn3c2nc2c3c(=O)n(CCN3CCOCC3)c(=O)n2C)cc1 (stereo not given)	2%	-7%	-5%	4%	0.6%	-4%	-3%	11%
O=S(=O)(NCc1csc(-c2cccnc2)n1)c1ccc2c(c1)OCCO2	14%	3%	-7%	0%	3.7%	9%	11%	15%
Cc1ccc(O)c(C(=O)c2cc(C(=O)NCCC(C)C)c(=O)n(CCC(C)C)c2)c1	0%[46.1 µM]	2%	/	/	/	-1%	-9%	?
O=C(CNC(=O)c1ccc(Cl)cc1Cl)NCC1CCCO1 (stereo not given)	4%	4%	/	4%	/	0%	16%	-23%[46.1 µM]
O=C(CCc1c[nH]c2ccccc12)NCCc1ccc2c(c1)OCCO2	?	-13%	/	-3%	/	1%	-1%	21%
CCN1C(=O)c2ccccc2S(=O)c2ccc(C(=O)N3CCN(c4cc(Cl)ccc4C)CC3)cc21 (stereo not given)	?	/	-10%	/	-1.1%	/	?	?
Cc1ccccc1C(=O)NC(CC(C)C)C(=O)NCC(C)(C)N1CCOCC1 (stereo not given)	14%	22%	/	/	/	-1%	-6%	-5%
N#C/C(=C\c1cccc(Cl)c1)C(=O)c1ccccc1	/	6%	/	9%	/	-3%	0%	/
Cc1ccc(Cn2ccc(NC(=O)c3cc(C)on3)n2)cc1	10%	-3%	0%	-13%	3.3%	3%	55%[activator]	?
O=C(NCCOc1ccccc1)C(=O)c1c[nH]c2ccccc12	/	-3%	/	-7%	/	-4%	50%[activator]	/
CCC(C)NC(=O)c1c(N)n(/N=C/c2cccnc2)c2nc3ccccc3nc12 (stereo not given)	-37%	6%	?	-4%	-3.8%	-7%	12%	26µM*
COc1ccccc1C(=O)Nc1c(C(=O)c2ccccc2)oc2ccccc12	-17%[46.1 µM]	/	-8%	/	-0.6%	/	-6%	-17%[46.1 µM]

(list continues)
SMILES	LASV entry inh	RE007 growth inh	Cruzain noTriton	NS1 function inh	Cruzain inh Det	SARS PLpro yeast	StopGo reporter	Marburg entry inh
CCCCCN(C(=O)CCC(=O)OC(C)C(=O)Nc1cccc(C#N)c1)c1c(N)n(CCCC)c(=O)[nH]c1=O (stereo not given)	2%	4%	/	/	/	-2%	0%	?
CCN(CC)c1ccc(NC(=O)C(C)C)cc1	1%	-2%	1%	-8%	4.1%	4%	35%[activator]	28%
O=C(CCCN1C(=O)C2CCCCN2C1=O)N1CCN(c2ccc([N+](=O)[O-])cc2)CC1 (stereo not given)	-5%	6%	-8%	-6%	?	0%	-12%	?
COc1ccc(NC(=O)CN2C(=O)CC(c3ccc(C)c(C)c3)=Nc3ccccc32)cc1OC	?	/	?	/	-9.6%	/	0%	/
O=C(CCc1c[nH]c2ccccc12)OCC(=O)N1CCN(S(=O)(=O)c2ccccc2)CC1	-2%	11%	/	/	/	-3%	-21%	11%
COc1cc(/C=C/C(=O)Nc2cc(C(F)(F)F)ccc2Cl)cc(OC)c1OC	?	-14%	?	0%	-6.8%	-21%	?	?
Cc1ccc(NC(=O)[C@H](Cc2ccccc2)NC(=O)[C@@H]2Cc3ccccc3CN2)c(C)c1	?	-4%	/	8%	/	-9%	2%	?
Cc1ccc(Nc2nc(N)nc(N)c2S(=O)(=O)c2ccccc2)cc1	-26%[46.1 µM]	/	-20%	/	-11%	/	-13%	?
CC(C)Nc1nnc(SCc2cc(=O)n3ccsc3n2)s1	-2%[46.1 µM]	3%	/	/	/	0%	-4%	6%[46.1 µM]
CCOC(=O)C1=C(COC(=O)CCOc2ccc(C)cc2)NC(=O)NC1C (stereo not given)	?	4%	/	/	/	-14%	-22%	?
Cc1cc2oc(=O)cc(COC(=O)c3n[nH]c4ccccc34)c2cc1C	10%	-1%	?	4%	-6.8%	-2%	-8%	?
COc1ccc(S(=O)(=O)NNC(=O)Nc2ccc(C)cc2)c(OC)c1	9%	-9%	/	23%	/	-2%	21%	24%
CC(C)CN(C(=O)c1cc2ccccc2o1)c1c(N)n(CC(C)C)c(=O)[nH]c1=O	-4%	-6%	-14%	17%	0.1%	10%	-7%	?
